H5N1 CPE = MDCK cell protection from H5N1 avian flu; 96,000 tested, 0.07% active; inhibition, % at 50 µM; cytopathic effect, luminescence, 72 h; active compounds read high; no value below 0 was filed and about half of the inactive calls have no number; reference of the scale not given here; AID 740, 2007; in the data active = inhibition above about 25%
An asterisk follows results filed as active.

Preview:
What do the screens show for `CCOC(=O)Cn1c(CN2CC(C)OC(C)C2)nc2c1c(=O)n(C)c(=O)n2C` (stereo unspecified)?
H5N1 CPE: inactive

Results for N#Cc1c(-c2ccco2)nc(SCC(=O)Nc2cccc(Cl)c2)[nH]c1=O ?
H5N1 CPE: inactive

What do the screens show for `CC1CCN(S(=O)(=O)N2CCC(C(=O)N3CCC(N(C)CC4CCCO4)CC3)CC2)CC1` (stereo unspecified)?
H5N1 CPE: inactive

How did N#Cc1cc(-c2ccccc2)nn1-c1ccccc1 do in these assays?
H5N1 CPE: inactive

How did O=S(=O)(/N=C(/c1ccc(Cl)cc1)N1CCOCC1)c1ccc(Cl)cc1 do in these assays?
H5N1 CPE: 1.5

What do the screens show for `COC(=O)COc1ccc(S(=O)(=O)Nc2cc(OC)ccc2OC)cc1`?
H5N1 CPE: inactive

What do the screens show for `O=C(O)Cn1ccnc1`?
H5N1 CPE: inactive

All compounds of this part, from the start:
What do the screens show for `CCOC(=O)Cn1c(CN2CC(C)OC(C)C2)nc2c1c(=O)n(C)c(=O)n2C` (stereo unspecified)?
H5N1 CPE: inactive

Results for N#Cc1c(-c2ccco2)nc(SCC(=O)Nc2cccc(Cl)c2)[nH]c1=O ?
H5N1 CPE: inactive

What do the screens show for `CC1CCN(S(=O)(=O)N2CCC(C(=O)N3CCC(N(C)CC4CCCO4)CC3)CC2)CC1` (stereo unspecified)?
H5N1 CPE: inactive

How did N#Cc1cc(-c2ccccc2)nn1-c1ccccc1 do in these assays?
H5N1 CPE: inactive

How did O=S(=O)(/N=C(/c1ccc(Cl)cc1)N1CCOCC1)c1ccc(Cl)cc1 do in these assays?
H5N1 CPE: 1.5

What do the screens show for `COC(=O)COc1ccc(S(=O)(=O)Nc2cc(OC)ccc2OC)cc1`?
H5N1 CPE: inactive

What do the screens show for `O=C(O)Cn1ccnc1`?
H5N1 CPE: inactive

How did CC(C)C(=O)N/N=C/c1ccc(OCc2ccccc2)cc1 do in these assays?
H5N1 CPE: inactive

What do the screens show for `CCC(=O)N1CCc2cc(S(=O)(=O)NC(C(=O)Nc3cccc(C)n3)C(C)C)ccc21` (stereo unspecified)?
H5N1 CPE: inactive

Results for CCOc1ccc(-c2nnc(SCC(=O)N3CCN(c4ccccc4)CC3)o2)cc1 ?
H5N1 CPE: 1.7

What do the screens show for `CN1C(=O)C(Cc2ccc3c(c2)OCO3)C(=O)N(C)C1=O`?
H5N1 CPE: 0.3

Results for CCCC(=O)Nc1ccc(C(=O)N/N=C/c2cccnc2)cc1 ?
H5N1 CPE: 0.9

What do the screens show for `O=C(CN1C(=O)c2ccccc2S1(=O)=O)N1CCN(c2ccccc2)CC1`?
H5N1 CPE: inactive

Results for CCOc1cccc(NCc2cc3c(C(C)(C)C)nn(-c4ccccc4)c3[nH]c2=O)c1 ?
H5N1 CPE: inactive

Results for COc1ccc(NC(=O)CC2C(=O)N(c3cccc(OC)c3)C(=O)N2CCC(C)C)cc1 (stereo unspecified) ?
H5N1 CPE: inactive

Results for O=C(c1ccccc1/S(=N/S(=O)(=O)c1ccccc1)N1CCOCC1)N1CCOCC1 (stereo unspecified) ?
H5N1 CPE: 0.6

How did Cc1cc(C(=O)Cn2nnc3ccccc3c2=O)c(C)n1-c1c(C)n(C)n(-c2ccccc2)c1=O do in these assays?
H5N1 CPE: 0.6

What do the screens show for `Clc1ccc(Nc2ncn[nH]2)cc1`?
H5N1 CPE: inactive

How did Cc1ccc(S(=O)(=O)NCCOc2nc(N3CCOCC3)nc(N3CCOCC3)n2)cc1 do in these assays?
H5N1 CPE: 0.9

How did CSc1nc(-c2ccc(C)cc2)[nH]c1S(=O)(=O)c1ccccc1 do in these assays?
H5N1 CPE: 0.7

What do the screens show for `CCCC(C(=O)NC1CCCC1)N(Cc1ccc2c(c1)OCO2)C(=O)c1snc(C(N)=O)c1N` (stereo unspecified)?
H5N1 CPE: inactive

How did COC(=O)CNC(=O)c1ccc(=O)oc1 do in these assays?
H5N1 CPE: inactive

Results for COc1ccc(NC(=O)CSc2nnc(-c3ccccn3)n2N)c(OC)c1 ?
H5N1 CPE: 0.7

What do the screens show for `COCCCNC(=O)C1CCN(S(=O)(=O)N(CC(C)C)CC(C)C)CC1`?
H5N1 CPE: inactive

Results for CC1(C)Cc2[nH]c(=O)c(C#N)cc2CS1 ?
H5N1 CPE: 0.3

How did COc1ccc(/C=N/n2c(-c3cccs3)n[nH]c2=S)cc1 do in these assays?
H5N1 CPE: 2.5

What do the screens show for `CC1Cc2ccccc2N1C(=O)C1CCCN1S(=O)(=O)c1ccc(Cl)cc1` (stereo unspecified)?
H5N1 CPE: inactive

Results for COc1cc(/C=N/NC(=O)CCn2c3ccccc3c3ccccc32)ccc1O ?
H5N1 CPE: 13.0

What do the screens show for `Cn1nc(C(C)(C)C)cc1C(=O)NCc1ccc(N2CCCC2=O)cc1`?
H5N1 CPE: inactive

What do the screens show for `O=C1N=C(N2CCOCC2)S/C1=C\C=C/c1ccccc1`?
H5N1 CPE: 1.4

Results for N#Cc1cn(CC(=O)NCc2cccnc2)c2ccccc12 ?
H5N1 CPE: inactive

How did C/C=C/C(=O)OCC(=O)NC(=O)NC(C)C do in these assays?
H5N1 CPE: inactive

What do the screens show for `COCCNc1nnc(SCC(=O)c2ccc3c(c2)OCO3)s1`?
H5N1 CPE: 0.7

How did Cc1ccc(NC(=O)Cn2nnc(C(=O)NCc3ccccc3)c2N)cc1C do in these assays?
H5N1 CPE: inactive

Results for O=C(/C=C/c1cccs1)c1ccc(NC(=O)c2cccc(Br)c2)cc1 ?
H5N1 CPE: inactive

Results for CC(C)NC(=O)COC(=O)c1ccc(Oc2ccccc2)cc1 ?
H5N1 CPE: inactive

Continued, starting with the last two of the part before.
Results for O=C(/C=C/c1cccs1)c1ccc(NC(=O)c2cccc(Br)c2)cc1 ?
H5N1 CPE: inactive

Results for CC(C)NC(=O)COC(=O)c1ccc(Oc2ccccc2)cc1 ?
H5N1 CPE: inactive

Results for CC(=O)NC1CC(C)(C)N(OC(C)=O)C(C)(C)C1 ?
H5N1 CPE: 2.1

How did CCOC(=O)N1CCN(C(=O)c2n[nH]c(=O)c3ccccc23)CC1 do in these assays?
H5N1 CPE: 0.0

Results for CC1CCN(S(=O)(=O)c2cccc(-c3csc(-c4cccnc4)n3)c2)CC1 ?
H5N1 CPE: 1.7

Results for O=C(CSc1nc2c(c(=O)n1-c1ccccc1)SCC2)N1CCN(c2ccccc2)CC1 ?
H5N1 CPE: 2.9

What do the screens show for `COc1ccc(Cl)cc1NC(=O)NC1CCCCC1`?
H5N1 CPE: inactive

How did CC1CC(=O)C2=C(C1)OC(N)=C(C#N)C2c1coc2ccccc2c1=O (stereo unspecified) do in these assays?
H5N1 CPE: 0.4

How did Cc1cc(Cl)ccc1OCc1n[nH]c(=S)n1C1CCCCC1 do in these assays?
H5N1 CPE: inactive

What do the screens show for `CSCCC(NS(=O)(=O)/C=C/c1ccccc1)C(=O)N1CCC(C)CC1` (stereo unspecified)?
H5N1 CPE: 1.4

How did CCC(C)[C@H](NC(=O)NCc1cccs1)C(=O)O (stereo partly specified) do in these assays?
H5N1 CPE: 0.1

What do the screens show for `C=CCNC(=O)c1c(N)n(CCN2CCOCC2)c2nc3ccccc3nc12`?
H5N1 CPE: inactive

Results for CCCCSC(=O)Nc1ccccc1 ?
H5N1 CPE: inactive

What do the screens show for `O=C(N=Nc1c(O)[nH]c2ccc(Br)cc12)c1ccccc1-n1cccc1`?
H5N1 CPE: 0.3

Results for Cc1cc(S(=O)(=O)N(Cc2ccc(F)cc2)CC2CCCO2)ccc1-n1cnnn1 (stereo unspecified) ?
H5N1 CPE: inactive

What do the screens show for `O=C(OCC(=O)N1CCCC1)c1ccco1`?
H5N1 CPE: 0.2

Results for COc1ccccc1NS(=O)(=O)c1cccc(C(=O)N/N=C(\C)c2ccc(-n3ccnc3)cc2)c1 ?
H5N1 CPE: 0.2

What do the screens show for `CS(=O)(=O)N1CCCC(C(=O)NCCCN2CCOCC2)C1` (stereo unspecified)?
H5N1 CPE: 0.1

Results for Cc1nc(=O)c(-c2ccccc2)c(C)n1CC1CCCO1 (stereo unspecified) ?
H5N1 CPE: inactive

How did O=C(N1CCN=C1SCc1cccnc1)C12CC3CC(CC(C3)C1)C2 do in these assays?
H5N1 CPE: 16.1

Results for Cc1cccc(C)c1NC(=O)CSCC(=O)c1ccc(O)c(O)c1 ?
H5N1 CPE: inactive

Results for O=C(Cc1cccc2ccccc12)N/N=C/c1ccc(Sc2cccc3cccnc23)o1 ?
H5N1 CPE: 0.7

Results for COc1ccc(Cc2nc(-c3ccc(-n4cccc4)cc3)no2)cc1 ?
H5N1 CPE: inactive

What do the screens show for `CCOC(=O)CC(=O)CSc1nc2ccccc2c(=O)n1-c1ccc(C(=O)NCCOC)cc1`?
H5N1 CPE: inactive

How did N#CC(c1ccccn1)(c1ncc(C(F)(F)F)cc1Cl)N1CCOCC1 (stereo unspecified) do in these assays?
H5N1 CPE: inactive

How did COC(=O)CNC(=O)COC(=O)C(Cc1ccccc1)NC(=O)c1ccco1 (stereo unspecified) do in these assays?
H5N1 CPE: inactive

What do the screens show for `CC(=O)N1CCC2(CC1)C(C#N)=C(N)Oc1c2sc2nc(C)cc(C)c12`?
H5N1 CPE: 0.5

What do the screens show for `O=C(c1ccco1)N1CCN(S(=O)(=O)N2CCOCC2)CC1`?
H5N1 CPE: inactive

Results for O=C1Nc2ccccc2C(O)(C(=O)NCc2ccc3c(c2)OCO3)N1c1ccccc1 (stereo unspecified) ?
H5N1 CPE: inactive

Results for O=C(/C=C/c1ccccc1)N1CCN(CC(O)COc2ccccc2)CC1 (stereo unspecified) ?
H5N1 CPE: inactive

Results for COc1cccc(/C=c2/s/c(=C(\C#N)C(=O)N3CCOCC3)n(-c3ccccc3)c2=O)c1 ?
H5N1 CPE: 0.7

What do the screens show for `CC1(C)CC(=O)C(C=NCCCN2CCOCC2)=C(O)C1`?
H5N1 CPE: inactive

What do the screens show for `CCN1CCN(C(c2cc3cc4c(cc3[nH]c2=O)OCO4)c2nnnn2C(C)(C)CC)CC1` (stereo unspecified)?
H5N1 CPE: 1.4

What do the screens show for `c1ccc(-n2ncc3c2ncn2c(C4CCCCC4)nnc32)cc1`?
H5N1 CPE: inactive

How did Cc1cnc(NC(=O)COc2ccccc2)s1 do in these assays?
H5N1 CPE: inactive

Results for COc1cc(C(=O)NC2=NCCS2)cc(OC)c1OC ?
H5N1 CPE: inactive

What do the screens show for `Cn1c(NC(=O)c2cccs2)cc(=O)n(C)c1=O`?
H5N1 CPE: 9.4

Results for O=C(Nc1ccccc1)OCCNC(=O)c1ccccc1 ?
H5N1 CPE: 1.4

What do the screens show for `Cc1ccc2nc(C(C)O)[nH]c2c1` (stereo unspecified)?
H5N1 CPE: inactive

What do the screens show for `Cc1cccc(NC(=O)CN(C)S(=O)(=O)c2cccs2)c1`?
H5N1 CPE: 0.7

What do the screens show for `COc1cccc(OCC(O)CN2CCN(CCO)CC2)c1` (stereo unspecified)?
H5N1 CPE: 0.3

How did CO/C([O-])=N/c1c[n+](-c2ccc(C)cc2)no1 do in these assays?
H5N1 CPE: 0.6

Results for COC(=O)C1=C(C)NC(=O)NC1c1cc(Cl)ccc1OC (stereo unspecified) ?
H5N1 CPE: 0.1

Results for CCOC(=O)c1c(NC(=O)Cc2cccs2)sc(C)c1C ?
H5N1 CPE: inactive

Results for COC(=O)C1=C(C)NC(C)=C(C(=O)OC)C1c1ccc(N(C)C)cc1 ?
H5N1 CPE: inactive

What do the screens show for `O=c1c2[nH]c3ccccc3c2ncn1CCC1=CCCCC1`?
H5N1 CPE: 0.2

How did CCc1cc2cc3c(cc2nc1SCC(=O)Nc1nnc(C)s1)OCCO3 do in these assays?
H5N1 CPE: 0.1

How did COc1ccc(CCNc2nc3ccccc3n3nnnc23)cc1OC do in these assays?
H5N1 CPE: 1.9

What do the screens show for `CCC(c1nnnn1Cc1ccco1)N(CCc1ccccc1)Cc1cc2ccc(OC)cc2[nH]c1=O` (stereo unspecified)?
H5N1 CPE: inactive

What do the screens show for `COC(=O)CSc1nnc(CSc2nc(C)cc(C)n2)n1Cc1ccco1`?
H5N1 CPE: 0.2

What do the screens show for `CNCc1ccccc1OCC(=O)Nc1ccccc1OC`?
H5N1 CPE: 2.4

What do the screens show for `Cc1cc(Cl)cc(Br)c1OCCCN1C(=O)NC(C)(C)C1=O`?
H5N1 CPE: inactive

Results for Cn1c(=O)n(C)c2cc(NS(C)(=O)=O)ccc21 ?
H5N1 CPE: inactive

Results for CCCCCCNC(=O)Cc1nc2nc(C)cc(C)n2n1 ?
H5N1 CPE: inactive

How did CN1C2C=C3C(C#N)=C(N)C(C#N)(C#N)[C@@H](c4cccc(F)c4)[C@@H]3C1CC2 (stereo partly specified) do in these assays?
H5N1 CPE: 0.8

Results for O=c1[nH]c(Cn2nnc(-c3ccccc3)n2)nc2scc(-c3ccccc3)c12 ?
H5N1 CPE: inactive

How did Cc1ccc(C)c(C(=O)CSc2n[nH]c(C(C)C)n2)c1 do in these assays?
H5N1 CPE: 0.7

What do the screens show for `C=CCn1c(SCc2c(C)noc2C)nnc1C1COc2ccccc2O1` (stereo unspecified)?
H5N1 CPE: 1.4

What do the screens show for `Cc1cc2nc(C3CCCN(C(=O)NCc4ccccc4)C3)[nH]c2cc1C` (stereo unspecified)?
H5N1 CPE: 0.3

What do the screens show for `COc1ccc(CC(=O)n2nc(-c3ccccc3)nc2NCc2ccco2)cc1`?
H5N1 CPE: inactive

Results for O=C(c1ccco1)N1CCN(CCCCN2C(=O)c3ccccc3C2=O)CC1 ?
H5N1 CPE: inactive

Results for COCC(=O)N(C)c1nnc(-c2cnccn2)s1 ?
H5N1 CPE: 0.1

What do the screens show for `CCn1c(CC(=O)Nc2ccc(C)cc2)nnc1SCC(=O)N1CCN(c2ccccc2)CC1`?
H5N1 CPE: inactive

How did Cn1c(=O)n(Cc2ccc(Cl)cc2)c2ccccc21 do in these assays?
H5N1 CPE: 0.2

How did CC1CCc2nc(NC(=O)CN3CCN(c4ccccc4)CC3)sc2C1 (stereo unspecified) do in these assays?
H5N1 CPE: inactive

Results for O=C(CN(Cc1ccco1)C(=O)Cn1nnc(-c2ccc(F)cc2)n1)NC1CCCC1 ?
H5N1 CPE: inactive

Results for N/C(=N\OC(=O)CCC1CCCCC1)c1ccccn1 ?
H5N1 CPE: 3.2

Of the compounds above, these contain a COOH group:
What do the screens show for `O=C(O)Cn1ccnc1`?
H5N1 CPE: inactive

How did CCC(C)[C@H](NC(=O)NCc1cccs1)C(=O)O (stereo partly specified) do in these assays?
H5N1 CPE: 0.1

An excerpt, so the mix of outcomes need not match the whole.
